Compound activity from PubChem.
RGS16-Gao: RGS16-Galphao interaction regulator (human) | O15492+P09471 | bead-based flow cytometry RGS16-Galphao binding, fluorescence; actives lie on both sides | binding response (% of control), % at 10 µM | 0.38% of 220,000 active | AID 1441;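 active = below 25% or above 175%, edge rows of some plates excepted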;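 also: Galphao activated by GDP with aluminum fluoride before binding; 100% = wells without compound and 0% = beads without RGS; some results beyond the cut were filed as inactive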
GALR2 agonist: GALR2 (human) receptor agonism; GALR2-expressing cells, agonist activation read-out; activation, %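 (tested at 5 µM)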; 0.48% of 140,000 active;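 active = above mean plus 3 SD of all compounds, about 5% in these data, not always enough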;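 also: 0% = vehicle buffer wells and 100% = reference agonist at full effect; tested in CHO reporter cells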
PKD1 inh: PKD1 (human) kinase inhibition. Q15139. inhibition, %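 (about 10 µM by stock and volumes)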. PKD1 kinase fluorescence polarization assay. 0.056% of 200,000 active. AID 797;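 active = inhibition of 50% or more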;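 also: controls were vehicle for no effect and a reference inhibitor for full effect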
Target sequence (Q15139 whole entry, looked up): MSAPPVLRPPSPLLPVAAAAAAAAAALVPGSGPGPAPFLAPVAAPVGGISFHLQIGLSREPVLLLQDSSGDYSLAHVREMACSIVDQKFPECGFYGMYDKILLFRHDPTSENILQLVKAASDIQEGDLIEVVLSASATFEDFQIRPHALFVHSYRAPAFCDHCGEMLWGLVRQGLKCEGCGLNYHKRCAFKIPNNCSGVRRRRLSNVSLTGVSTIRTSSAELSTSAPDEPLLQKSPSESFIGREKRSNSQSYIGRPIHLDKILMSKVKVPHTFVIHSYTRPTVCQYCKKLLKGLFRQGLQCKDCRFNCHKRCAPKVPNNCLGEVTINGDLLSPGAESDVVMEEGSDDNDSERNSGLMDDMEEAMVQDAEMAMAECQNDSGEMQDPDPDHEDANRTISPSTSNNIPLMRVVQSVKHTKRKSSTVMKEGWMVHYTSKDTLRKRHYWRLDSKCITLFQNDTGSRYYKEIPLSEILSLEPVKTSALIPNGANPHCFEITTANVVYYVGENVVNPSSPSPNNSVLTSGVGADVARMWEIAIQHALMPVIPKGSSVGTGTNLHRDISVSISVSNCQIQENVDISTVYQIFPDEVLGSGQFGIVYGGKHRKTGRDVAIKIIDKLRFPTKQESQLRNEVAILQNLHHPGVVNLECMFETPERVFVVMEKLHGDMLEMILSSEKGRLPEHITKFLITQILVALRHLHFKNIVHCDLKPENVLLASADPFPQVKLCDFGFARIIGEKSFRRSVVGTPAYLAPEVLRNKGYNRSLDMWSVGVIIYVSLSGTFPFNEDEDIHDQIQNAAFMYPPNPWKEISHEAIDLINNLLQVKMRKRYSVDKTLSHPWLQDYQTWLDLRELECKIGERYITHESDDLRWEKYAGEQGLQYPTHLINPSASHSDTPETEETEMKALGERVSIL
Insulin prom inh: TRM-6 insulin promoter activity inhibition | TRM-6 cells (human fetal islet line), insulin promoter-eGFP reporter, imaging; reporter expression induced with tamoxifen | inhibition, % at 2 µM | 0.9% of 130,000 active | AID 1273;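 active = inhibition above the mean plus 3 SD, with well images judged a real hit on visual review, cut at about 60% in these data, passing the limit was not always enough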
HSV augment: HSV replication enhancement. HSV replication augmentation in cells, fold increase. maximum fold increase. 0.005% of 220,000 active. AID 1956;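 active = peak rise of 1.5-fold or more in the series; tested in PC3 cells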;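 also: first round at 10 µM; read as green reporter fluorescence; hits show the peak of a series up to 25 µM; 1 = signal of infected wells without compound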
Insulin prom inh cell count: recorded beside Insulin prom inh, whose call it bears; normalized cell count, %; measured here: cell count, toxicity; reference of the scale not given here;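 cells exposed to compound for 48 h; stained nuclei by imaging scaled within each plate; lower means fewer cells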
HSV augment primary fold: also measured in HSV augment; calls as there; fold increase; compound at 10 µM; measured here: primary screen fold increase 10 uM; tested in PC3 cells;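 GFP signal in the first replicate; 1 = infected wells without compound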
An asterisk follows results filed as active; i = inactive; . = no result given.

Start of the data: the first 7 compounds (preview)
SMILES	RGS16-Gao	GALR2 agonist	PKD1 inh	Insulin prom inh	Insulin prom inh cell count	HSV augment	HSV augment primary fold
COc1ccc(C2CC(=O)c3c(C)nc(N4CCN(Cc5ccccc5)CC4)nc3C2)cc1OC (stereo not drawn)	130	-1.1	-1	.	.	i	1
COCCCNCCCOc1ccc(C)cc1Br	123	-2.1	-12	3	46	i	0.92
CCCOC1CCCN(C(=O)CCc2nnc(Cc3cccc(C)c3)o2)C1 (stereo not drawn)	100	.	0	.	.	i	0.97
CCC(C)C(NC(=O)c1ccccc1NC(=O)c1ccc(OC)cc1)C(=O)NCc1ccco1 (stereo not drawn)	94	14*	1	.	.	.	.
NC(=O)C1CCN(CC(=O)NCc2ccccc2)CC1	100	-0.3	-4	10	111	i	1
CC12CN3CC(C)(CN(C1)C3c1ccc([N+](=O)[O-])o1)C2 (stereo not drawn)	88	.	.	.	.	i	0.98
CN(Cc1ccccc1)C(=O)c1ccc(Cl)c([N+](=O)[O-])c1	107	-0.2	-6	-42	116	i	1.1

All compounds of this part (from the top)
SMILES	RGS16-Gao	GALR2 agonist	PKD1 inh	Insulin prom inh	Insulin prom inh cell count	HSV augment	HSV augment primary fold
COc1ccc(C2CC(=O)c3c(C)nc(N4CCN(Cc5ccccc5)CC4)nc3C2)cc1OC (stereo not drawn)	130	-1.1	-1	.	.	i	1
COCCCNCCCOc1ccc(C)cc1Br	123	-2.1	-12	3	46	i	0.92
CCCOC1CCCN(C(=O)CCc2nnc(Cc3cccc(C)c3)o2)C1 (stereo not drawn)	100	.	0	.	.	i	0.97
CCC(C)C(NC(=O)c1ccccc1NC(=O)c1ccc(OC)cc1)C(=O)NCc1ccco1 (stereo not drawn)	94	14*	1	.	.	.	.
NC(=O)C1CCN(CC(=O)NCc2ccccc2)CC1	100	-0.3	-4	10	111	i	1
CC12CN3CC(C)(CN(C1)C3c1ccc([N+](=O)[O-])o1)C2 (stereo not drawn)	88	.	.	.	.	i	0.98
CN(Cc1ccccc1)C(=O)c1ccc(Cl)c([N+](=O)[O-])c1	107	-0.2	-6	-42	116	i	1.1
O=C1Nc2cc3c(cc2C1=O)sc1ccccc13	99	.	.	.	.	i	1.1
O=C(NC1CCCCCC1)c1cccnc1Sc1ccccc1	102	0.2	-8	.	.	i	0.99
COc1ccc(N/C=C(\C#N)c2nc3ccccc3n2C)c(OC)c1	98	-0.3	5	-138	36	i	0.76
Cc1ccc(NC(=O)Cn2c([N+](=O)[O-])cnc2C)cc1	115	.	-10	-14	113	i	0.98
Nc1nc(-c2ccc(Cl)cc2)c(S(=O)(=O)c2ccccc2)s1	95	.	5	.	.	i	0.96
COc1cc(C)nc(Oc2ccc(OCc3ccccc3)nn2)n1	106	-0.5	2	23	170	i	0.81
COC(=O)C1=C(C)NC(C)=C(C(=O)OC)C1/C=C/c1ccccc1	101	-0.9	1	29	104	i	1.1
Cc1nc(-c2cc(C#N)c(Sc3ccc(Cl)cc3Cl)nc2C)cs1	101	.	.	.	.	i	1.1
COc1ccc(CCNC(=O)COc2ccc(S(=O)(=O)NC(C)C)cc2Cl)cc1OC	100	-2.5	-11	-25	115	i	0.78
Cc1ccc2[nH]c(=O)c(COC(=O)C3CCCO3)cc2c1 (stereo not drawn)	49	2.8	6	-12	89	i	1
Fc1ccccc1-c1ccc(/C=N/Nc2nc3ccccc3[nH]2)o1	106	4.1	-4	24	88	i	0.86
N#C/C(=C/c1ccc([N+](=O)[O-])cc1)C(=O)Nc1ccccc1O	110	-0.7	9	-28	65	i	0.96
COc1cccc(-c2nc(NCC3CCCO3)c3ccccc3n2)c1O (stereo not drawn)	113	0.6	13	-12	95	i	0.47
COCCCNC(=O)/C=C1\Sc2ccccc2N(Cc2ccccc2F)C1=O	109	.	-2	-38	144	i	0.81
COc1cccc(C2=NNC(=NCc3ccccc3)SC2)c1	106	.	-3	-9	109	i	0.91
Cc1ccc(NC(=O)C(C)NS(=O)(=O)c2ccc(F)cc2)cc1C (stereo not drawn)	90	.	2	-112	70	i	1
CCN(CC)C(=O)CSc1nnc(-c2cc(OC)cc(OC)c2)o1	118	-0.8	3	0	61	i	1.1
CC(=O)CC1(O)C(=O)N(CN2CCN(c3ccccc3)CC2)c2ccccc21 (stereo not drawn)	97	-1.3	5	.	.	i	0.66

Six compounds from above, ordered by heavy-atom count, rising.
SMILES	RGS16-Gao	GALR2 agonist	PKD1 inh	Insulin prom inh	Insulin prom inh cell count	HSV augment	HSV augment primary fold
Cc1ccc2[nH]c(=O)c(COC(=O)C3CCCO3)cc2c1 (stereo not drawn)	49	2.8	6	-12	89	i	1
Fc1ccccc1-c1ccc(/C=N/Nc2nc3ccccc3[nH]2)o1	106	4.1	-4	24	88	i	0.86
COc1ccc(N/C=C(\C#N)c2nc3ccccc3n2C)c(OC)c1	98	-0.3	5	-138	36	i	0.76
CCCOC1CCCN(C(=O)CCc2nnc(Cc3cccc(C)c3)o2)C1 (stereo not drawn)	100	.	0	.	.	i	0.97
CC(=O)CC1(O)C(=O)N(CN2CCN(c3ccccc3)CC2)c2ccccc21 (stereo not drawn)	97	-1.3	5	.	.	i	0.66
COc1ccc(CCNC(=O)COc2ccc(S(=O)(=O)NC(C)C)cc2Cl)cc1OC	100	-2.5	-11	-25	115	i	0.78

The listing continues.
SMILES	RGS16-Gao	GALR2 agonist	PKD1 inh	Insulin prom inh	Insulin prom inh cell count	HSV augment	HSV augment primary fold
O=C1c2ccccc2C(=O)c2c1ccc1c(=O)n(-c3ccccc3)[nH]c21	111	-1.1	1	17	147	i	1.1
CCN(C(=O)COC(=O)/C=C/c1c(C)nn(Cc2ccc(C)cc2)c1C)C1CCS(=O)(=O)C1 (stereo not drawn)	91	.	-1	.	.	i	0.82
NC(=O)Nc1ccc(Nc2ccccc2)cc1	100	.	.	.	.	i	1.1
COc1ccc(Cc2nnc(NC(=O)c3ccco3)s2)cc1OC	100	-1.6	7	.	.	i	1
CN(Cc1cccc(C(F)(F)F)c1)Cc1nc(-c2cnccn2)no1	96	.	3	.	.	i	1
CCC1CCCCN1C(=O)c1cc(-c2ccc(Cl)c(Cl)c2)on1 (stereo not drawn)	102	-1.4	-6	.	.	i	0.89
CC(C)=C1Cc2ccccc2C1=O	96	.	4	.	.	i	1.1
CCOc1ccc(NS(=O)(=O)c2ccc(N)cc2)cc1	94	-2.5	-8	-50	111	i	0.95
COc1ccnc(Oc2ccccc2)c1-c1ncn[nH]1	103	.	-1	.	.	i	1
CCNC(=O)C12CCC(C)(C(=O)C1Br)C2(C)C (stereo not drawn)	103	-0.4	-2	.	.	i	1.2
Cc1cc(NC(=O)c2ccc(S(=O)(=O)N(C)CC3CCCO3)cc2)no1 (stereo not drawn)	99	.	-1	-414	66	i	0.82
COC(=O)c1cc(-c2ccc(S(=O)(=O)N3CCCCC3)cc2)c(C(F)(F)F)s1	103	.	.	.	.	i	1.1
COc1ccc(/C=N/Nc2cc(C)nc(-n3nc(C)cc3C)n2)cc1	102	0.3	-3	.	.	i	0.73
Cc1cn(C2OC(COC(=O)c3ccccc3)C(O)C2Cl)c(=O)[nH]c1=O (stereo not drawn)	102	.	6	6	132	i	1.4
Cc1nnc(SCC(=O)Nc2cccc(C(F)(F)F)c2)[nH]c1=O	103	0.2	3	43	45	i	1
COc1ccc(Br)cc1C1NC(=O)NC(C)=C1C(=O)N(C)C (stereo not drawn)	111	-3.7	-3	19	71	i	0.78
COCCNC(=S)N1CCC(C(=O)c2ccc3c(c2)OCCO3)CC1	103	.	-3	.	.	i	0.96
CCc1ccccc1NS(=O)(=O)c1ccc2[nH]cc(C(=O)NC3CCCC3)c(=O)c2c1	105	-1.2	-6	17	68	i	0.91
O=C(Nc1nc(-c2ccccc2)cs1)c1ccc2c(c1)S(=O)(=O)c1ccccc1C2=O	54	-1.8	6	47	105	i	0.96
CCOc1ccccc1N1CCN(C(=O)c2cc3c(s2)CCC3)CC1	121	-0.3	1	.	.	i	0.96
O=C(OCCN1C(=O)c2ccccc2C1=O)c1cc(=O)[nH]c2ccccc12	99	0.5	-3	-45	107	i	0.95
COc1nc(C)nc2c1sc1nc3c(cc12)COC(C)(C)C3	93	-0.7	4	-3	148	i	0.84
CCC(c1nnnn1CCOC)N(Cc1cc2cc(C)c(C)cc2[nH]c1=O)CC1CCCO1 (stereo not drawn)	105	0.1	2	30	38	i	0.76
COc1cc(NS(=O)(=O)c2ccc(Br)s2)cc(OC)c1	110	-1.4	-4	-257	97	i	0.95
COC(=O)c1ccccc1NC(=O)NC1CCCCC1	107	.	.	.	.	i	1

(more compounds)
SMILES	RGS16-Gao	GALR2 agonist	PKD1 inh	Insulin prom inh	Insulin prom inh cell count	HSV augment	HSV augment primary fold
O=C(NCc1cccnc1)c1cn(-c2ccccc2)nc1-c1ccccc1	101	.	2	.	.	i	0.97
Cc1cc(C)n(-c2nc3ccccc3c(=O)n2OCC(N)=O)n1	97	-2.3	-7	31	112	i	0.93
Cc1ccc(-n2c(SCC(=O)Nc3ncc(Cl)cc3Cl)nc3ccccc32)cc1	14*	0.1	-13	10	65	i	0.73
Cc1cc(C)c(C#N)c(SC(F)F)n1	94	-1.6	1	53	59	i	0.96
COc1ccc(-c2nc3ccccc3n2CCC(C)C)cc1OC	103	-0.8	1	10	74	i	0.9
COC(=O)C(C(=O)Nc1nc2ccccc2s1)C1CCCC1 (stereo not drawn)	105	.	0	.	.	i	0.97
CCCc1[nH]nc2c1C1(CCN(C(=O)OCc3ccccc3)CC1)C(C#N)=C(N)O2	17	-1.2	6	-12	117	i	1.1
CN1CCc2c(OCC(=O)N3CCC(Cc4ccccc4)CC3)cccc2C1=O	102	.	-5	.	.	i	0.94
Cc1ccc(N(C)S(=O)(=O)c2cccc(C(=O)NC3=NCCS3)c2)cc1	96	-1.1	-5	-54	103	i	0.92
Cc1cc(C)c2nc(SCC(=O)NCCC3=CCCCC3)cc(C)c2c1	95	-0.2	3	-77	128	i	1
CC(Sc1nc2ccccc2c(=O)n1Cc1ccco1)C(=O)c1ccccc1 (stereo not drawn)	100	0.2	0	.	.	i	1.1
CC(=O)N(O)CCCCCNC(=O)CCC(=O)N(O)CCCCCNC(=O)CCC(=O)N(O)CCCCCN	35	-1.5	3	27	131	i	0.78
O=S(=O)(c1ccc(Cl)cc1)c1cnc(-c2cccnc2)nc1-c1ccccc1	99	-2.0	-8	43	142	i	1.1
CCCCCc1c(C)nc(N2CCOCC2)[nH]c1=O	99	-0.9	11	.	.	i	1.1
Cc1cccc2cc(COC(=O)c3ccccc3)c(=O)[nH]c12	101	-1.4	3	-79	66	i	0.99
C/C(=N\NC(=S)Nc1ccccc1C)c1ccc(O)cc1	103	.	-5	.	.	i	0.86
O=C(CCCSc1nc2ccccc2[nH]1)NC1=NCCS1	98	-0.1	5	.	.	i	1
C/C(N)=C(/C#N)C(=O)CSc1nc2ccccc2c(=O)n1CCCO	100	0.0	29	31	108	i	1
COC(=O)c1cc(C#N)c(N2CCOCC2)nc1C	105	.	2	26	86	i	1
COc1ccc(C(C)=O)cc1CSc1nnc(Nc2ccc(C)cc2C)s1	103	-0.7	2	.	.	i	1.1
COc1ccc(-c2ccc(SC)nn2)cc1	102	.	-2	.	.	i	1.1
COC(=O)c1scc(C)c1N/N=C(\C)c1cc(F)c(Cl)cc1F	89	-4.2	0	18	74	i	1.4
O=C(NCCCN1CCOCC1)c1cccnc1	114	-2.1	5	0	52	i	0.97
CCOC(=O)CN1CCS(=O)(=O)CC1	99	.	-5	.	.	i	0.97
O=C(Nc1ccccc1)N(Cc1ccccc1)CC(O)C(F)(F)F (stereo not drawn)	61	-2.8	-5	-16	191	i	0.98
CCn1nc(NC(=O)c2ccccn2)c2cc3cc(C)ccc3nc21	101	7.5	3	.	.	i	0.99
Cc1ccc(-c2nnc(-n3ncc(C#N)c3N)c3ccccc23)cc1C	99	0.3	-3	.	.	i	0.74
CCCc1nnc2c(N(C)S(=O)(=O)c3ccccc3)nc3ccccc3n12	113	0.6	-6	7	66	i	0.84

With a hit mark in GALR2 agonist, of those listed so far:
molecule	RGS16-Gao	GALR2 agonist	PKD1 inh	HSV augment	HSV augment primary fold
CCC(C)C(NC(=O)c1ccccc1NC(=O)c1ccc(OC)cc1)C(=O)NCc1ccco1 (stereo not drawn)	94	14*	1	.	.
